Vaccinia inh: blocks a specific stage of Vaccinia orthopoxvirus infection, primary screen, cell-based, single point | Vaccinia-infected cells, mCherry/Venus stage reporter fluorescence; active compounds read low; some inactives read as strong as hits | activity change (mCherry), % (no concentration beside the values) | actives 0.01% (n = 89,000) | AID 1053133, 2014;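 active means mCherry past -33% and 40 or more points under the early reporter, replicates agreeing; inconclusive means past -33% without that gap or agreement; tested in A549 cells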;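 further: scaled between vehicle wells and reference inhibitor wells; 23 nL library stock went into each well; one replicate is shown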
Vaccinia inh Venus: recorded beside Vaccinia inh, whose call it bears; activity change (Venus), %; measured here: Venus reporter, other viral stage;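 negative = less Venus signal; first of two replicates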
Numbers without * were called inactive; ? = inconclusive; nt = no result given. Some of the compounds tested. The share of hits here may be higher or lower than overall.

smiles	Vaccinia inh	Vaccinia inh Venus
C[C@@H]1CN([C@@H](C)CO)C(=O)c2cc(NC(=O)C3CCCCC3)ccc2O[C@@H]1CN(C)C(=O)Nc1ccc2c(c1)OCO2	15	4
O=C(Nc1ccc2c(c1)OCO2)N[C@H]1CC[C@@H](CCNC(=O)C2CCOCC2)O[C@H]1CO	17	4
CO[C@@H]1CN(C)C(=O)c2ccc(NS(=O)(=O)c3cn(C)cn3)cc2OC[C@@H](C)N(CCC(F)(F)F)C[C@@H]1C	10	9
O=C(C[C@H]1C[C@H]2c3cc(NC(=O)Cc4ccncc4)ccc3O[C@H]2[C@@H](CO)O1)NCc1ccc(-c2ccccc2)cc1	8	12
C[C@@H](NC(=O)[C@H]1[C@H](CO)[C@H]2Cn3c(ccc(-c4ccccc4)c3=O)[C@@H]1N2C)c1ccccc1	-7	-9
Cc1noc(C)c1S(=O)(=O)N(C)C[C@H]1Oc2ccc(NC(=O)CCCN(C)C)cc2CC(=O)N([C@H](C)CO)C[C@@H]1C	14	15
O=C(C[C@H]1CC[C@H]2[C@@H](COC[C@H](O)CN2C(=O)c2ccccc2F)O1)NCc1ccc(-c2ccccc2)cc1	?	nt
O=C(N[C@@H]1C=C[C@@H](CC(=O)N2CCCCC2)O[C@@H]1CO)c1ccccn1	0	14
N#C[C@H]1[C@H](c2ccccc2)[C@@H](CO)N1C(=O)c1cc(Cl)cc(Cl)c1	-9	-18
O=C([C@@H]1[C@@H](CO)[C@@H]2Cn3c(ccc(C4=CCCCC4)c3=O)[C@H]1N2)N1CCC(Cc2ccccc2)CC1	0	-3
C[C@@H]1CCCCO[C@@H](CN(C)Cc2ccccc2)[C@H](C)CN([C@@H](C)CO)C(=O)c2cc(NS(=O)(=O)c3cn(C)cn3)ccc2O1	8	2
C#CCNC(=O)C1=C[C@H](C)[C@@H](CCCO)[C@H](OCC)O1	4	2
C[C@@H]1CCCCO[C@@H](CN(C)S(=O)(=O)c2cccs2)[C@H](C)CN([C@H](C)CO)C(=O)c2cc(NS(=O)(=O)c3ccccc3)ccc2O1	?	nt
COc1ccc2c3c(n(C)c2c1)[C@@H](CO)N(C(=O)C1CC1)CC31CCN(Cc2cccc(F)c2)CC1	?	nt
C[C@@H]1CN([C@H](C)CO)C(=O)c2cc(NC(=O)Cc3ccccc3)ccc2O[C@@H](C)CCCCO[C@@H]1CN(C)Cc1ccc(C(=O)O)cc1	26	9
CCCNC(=O)N[C@H]1CC[C@H](CCn2cc(-c3cccc(F)c3)nn2)O[C@H]1CO	5	11
O=C(NCC[C@@H]1CC[C@H](NS(=O)(=O)c2cccc(F)c2)[C@H](CO)O1)Nc1cc(F)ccc1F	-16	-12
O=C(C[C@H]1C[C@@H]2c3cc(NC(=O)C4CCC4)ccc3O[C@@H]2[C@@H](CO)O1)NCc1cc(F)ccc1F	-2	6
N#Cc1ccc(-c2ccc([C@H]3[C@H](CO)N4CCCCN(S(=O)(=O)c5ccccc5)C[C@@H]34)cc2)cc1	?	nt
O=C(C[C@H]1C=C[C@@H](NS(=O)(=O)c2ccccc2)[C@@H](CO)O1)NCCN1CCCCC1	-2	0
Cc1ccccc1S(=O)(=O)N1C[C@@H](O)COC[C@@H]2O[C@@H](CC(=O)N3CCCCC3)CC[C@H]21	36	13
CN(C)c1ccc2c(c1)[C@H]1C[C@H](CC(=O)NCCc3ccccc3)O[C@H](CO)[C@H]1O2	-10	-3
CCC(=O)N1[C@H](CO)[C@@H](c2ccccc2)[C@@H]1CN(CC)C(=O)c1ccc(F)cc1	17	14
C[C@H]1CN([C@@H](C)CO)C(=O)Cc2cc(NC(=O)Nc3ccc(F)cc3)ccc2O[C@H]1CN(C)Cc1ccncc1	?	nt
Cc1ccc(S(=O)(=O)Nc2ccc3c(c2)C(=O)N([C@@H](C)CO)C[C@H](C)[C@@H](CN(C)C(=O)Nc2ccccc2)OCCCC[C@@H](C)O3)cc1	?	nt
C[C@@H]1CN([C@@H](C)CO)C(=O)c2cc(-c3cncnc3)cnc2O[C@@H]1CN(C)C(=O)Nc1ccc2c(c1)OCO2	23	14
COc1cccc(S(=O)(=O)N[C@@H]2CC[C@@H](CCNC(=O)Nc3cc(F)ccc3F)O[C@@H]2CO)c1	-13	-1
COC(=O)C[C@@H]1CC[C@@H]2[C@H](COc3ccc(NC(=O)c4ccc(OC)cc4)cc3C(=O)N2C)O1	0	-3
C[C@@H]1CN([C@H](C)CO)C(=O)c2cc(NC(=O)Nc3ccc4c(c3)OCO4)ccc2O[C@@H](C)CCCCO[C@@H]1CN(C)Cc1ccccc1	?	nt
CC(C)NC(=O)Nc1ccc2c(c1)C(=O)N([C@@H](C)CO)C[C@H](C)[C@@H](CN(C)S(=O)(=O)c1ccc(F)cc1)OCCCC[C@H](C)O2	-13	-10
C[C@@H]1CCCCO[C@@H](CN(C)C(=O)CCCN(C)C)[C@H](C)CN([C@@H](C)CO)C(=O)c2cc(NS(=O)(=O)c3cccs3)ccc2O1	34	6
CC(C)NC(=O)N(C)C[C@H]1OCCCC[C@H](C)Oc2ccc(NS(=O)(=O)c3cccs3)cc2C(=O)N([C@@H](C)CO)C[C@H]1C	7	3
C[C@H](CO)N1C[C@H](C)[C@H](CN(C)Cc2ccc(-c3ccccc3)cc2)OCc2cnnn2CCCC1=O	?	nt
CO[C@@H]1CN(C)C(=O)c2ccc(NC(C)=O)cc2OC[C@H](C)N(C(=O)c2ccncc2)C[C@@H]1C	5	8
CN(C)C(=O)C[C@@H]1CC[C@@H]2[C@H](COC[C@H](O)CN2S(=O)(=O)c2ccccc2)O1	6	8
CC(=O)N(C)C[C@H]1Oc2cc(C#Cc3cccc(F)c3)ccc2S(=O)(=O)N([C@H](C)CO)C[C@@H]1C	-10	-10
CCC(=O)N1C[C@@H](C)[C@@H](OC)CN(C)C(=O)c2cc(NS(=O)(=O)CC)ccc2OC[C@H]1C	4	-3
Cc1noc(C)c1NC(=O)N(C)C[C@@H]1Oc2ccc(NC(=O)Nc3ccc4c(c3)OCO4)cc2C(=O)N([C@H](C)CO)C[C@@H]1C	15	7
CC(=O)N1[C@H](CO)[C@@H](c2ccccc2)C12CN(C(=O)c1cnccn1)C2	4	8
C[C@@H]1CN([C@H](C)CO)C(=O)c2cc(-c3ccncc3)cnc2O[C@@H]1CN(C)C(=O)c1cccc(F)c1	23	7
COc1ccc(NC(=O)Nc2cccc3c2O[C@@H](CN(C)Cc2ccc(Oc4ccccc4)cc2)[C@H](C)CN([C@H](C)CO)C3=O)cc1	-14	-6
CC(C)NC(=O)N(C)C[C@H]1Oc2cc(C3=CCCC3)ccc2S(=O)(=O)N([C@@H](C)CO)C[C@@H]1C	-16	-8
C[C@@H]1CN([C@H](C)CO)C(=O)Cc2cc(NC(=O)Cc3ccccc3)ccc2O[C@@H]1CN(C)Cc1ccc(Cl)c(Cl)c1	?	nt
COc1ccc(NC(=O)N(C)C[C@@H]2Oc3ccc(N(C)C)cc3CC(=O)N([C@@H](C)CO)C[C@H]2C)cc1	17	12
O=C(C[C@@H]1C=C[C@@H](NC(=O)Nc2cc(F)ccc2F)[C@H](CO)O1)NCCCN1CCOCC1	-3	-6
C[C@H](CO)N1C[C@H](C)[C@H](CN(C)C(=O)Nc2ccccc2)Oc2ccc(NC(=O)C3CCCCC3)cc2C1=O	1	2
COc1ccccc1S(=O)(=O)N[C@H]1C=C[C@H](CC(=O)N2CCN(C)CC2)O[C@@H]1CO	-16	-18
COc1ccc(S(=O)(=O)N(C)C[C@H]2Oc3ccc(NC(=O)Nc4c(C)noc4C)cc3CC(=O)N([C@@H](C)CO)C[C@H]2C)cc1	2	2
COCC(=O)N1[C@H](C(=O)N2CCCCC2)[C@@H](CO)[C@@H]2Cn3c(ccc(C4=CCCCC4)c3=O)[C@@H]21	10	13
CCCNC(=O)Nc1ccc2c(c1)OC[C@H](C)N(C(=O)C1CC1)C[C@@H](C)[C@@H](OC)CN(C)C2=O	14	17
O=C(C[C@@H]1CC[C@@H]2[C@H](COC[C@@H](O)CN2Cc2cccc(Cl)c2)O1)NCC1CCCCC1	-8	-5
COc1cccc(C(=O)Nc2ccc3c(c2)C(=O)N(C)C[C@H](OC)[C@@H](C)CN(C(C)=O)[C@H](C)CO3)c1	4	5
Cc1ccc(S(=O)(=O)Nc2ccc3c(c2)C(=O)N([C@H](C)CO)C[C@H](C)[C@H](CN(C)C)OCCCC[C@H](C)O3)cc1	-7	-2
O=C(C[C@@H]1C[C@H]2c3cc(NC(=O)C4CCC4)ccc3O[C@H]2[C@@H](CO)O1)NCc1cc(F)ccc1F	1	0
C[C@H](CO)N1C[C@H](C)[C@H](CN(C)Cc2ccccc2)Oc2c(NC(=O)c3ccc(-c4nccs4)cc3)cccc2C1=O	2	9
C[C@@H]1CN([C@@H](C)CO)C(=O)c2cc(NS(=O)(=O)c3cccs3)ccc2O[C@@H](C)CCCCO[C@H]1CN(C)S(=O)(=O)c1ccccc1	-9	-6
COc1ccccc1CN(C)C[C@@H]1OCc2cn(nn2)CCCC(=O)N([C@H](C)CO)C[C@@H]1C	15	10
C[C@H]1CN([C@@H](C)CO)C(=O)c2cccc(NC(=O)Nc3cccc4ccccc34)c2O[C@@H]1CN(C)S(=O)(=O)c1ccccc1	-12	-7
C[C@@H]1CCCCO[C@H](CN(C)S(=O)(=O)c2ccc(Cl)cc2)[C@@H](C)CN([C@H](C)CO)C(=O)c2cc(NS(C)(=O)=O)ccc2O1	13	14
O=C(C[C@H]1C[C@H]2c3cc(NC(=O)Cc4ccncc4)ccc3O[C@H]2[C@H](CO)O1)NCc1ccc2c(c1)OCO2	0	8

Some of the entries so far, with two lines to a compound:
Results follow in this order: Vaccinia inh, Vaccinia inh Venus
C[C@H](CO)N1C[C@H](C)[C@H](CN(C)C(=O)Nc2ccccc2)Oc2ccc(NC(=O)C3CCCCC3)cc2C1=O
→ 1, 2
COc1ccccc1S(=O)(=O)N[C@H]1C=C[C@H](CC(=O)N2CCN(C)CC2)O[C@@H]1CO
→ -16, -18

Next part
smiles	Vaccinia inh	Vaccinia inh Venus
COc1ccc(S(=O)(=O)Nc2ccc3c(c2)C(=O)N([C@@H](C)CO)C[C@@H](C)[C@@H](CN(C)C(=O)Nc2ccc(C(F)(F)F)cc2)O3)cc1	-28	-23
COc1ccc(C#Cc2ccc3c(c2)[C@H]2[C@H](CCN2S(=O)(=O)c2ccccc2C)[C@H](CO)N3)cc1	13	11
C[C@H]1CN([C@@H](C)CO)C(=O)c2cc(NC(=O)Nc3cccc4ccccc34)ccc2O[C@H]1CN(C)Cc1ccc(C(=O)Nc2ccccc2N)cc1	25	14
C[C@@H]1CN([C@@H](C)CO)C(=O)c2cc(NC(=O)Nc3ccccc3)ccc2O[C@H]1CN(C)Cc1ccc(C(=O)O)cc1	21	14
COc1ccc2c3c([nH]c2c1)[C@@H](CO)N(Cc1ccccc1F)CC31CCN(C)CC1	-18	-14
Cc1noc(C)c1NC(=O)N(C)C[C@@H]1Oc2ccc(NS(=O)(=O)c3ccc(F)cc3)cc2CC(=O)N([C@@H](C)CO)C[C@@H]1C	-4	15
O=C(C[C@@H]1C=C[C@H](NC(=O)NC2CCCCC2)[C@H](CO)O1)NCc1ccccc1	5	9
CC(C)NC(=O)N1[C@@H](C#N)[C@@H](c2ccc(C#CC3CCCC3)cc2)[C@@H]1CO	-31	-29
CO[C@@H]1CN(C)C(=O)c2ccc(NC(=O)C3CCC3)cc2OC[C@H](C)N(CC2CCCCC2)C[C@H]1C	-15	-10
O=C(C[C@@H]1C=C[C@H](NC(=O)c2ccc3c(c2)OCO3)[C@H](CO)O1)NCc1ccc(F)cc1	7	19
Cc1noc(C)c1NC(=O)Nc1ccc2c(c1)C(=O)N(C)[C@H]1CC[C@@H](CC(=O)N[C@@H]3CCN(Cc4ccccc4)C3)O[C@H]1CO2	1	-2
CN1CCN(C(=O)c2cc3c(c(-c4cccc(-c5cccc(C(=O)N(C)C)c5)c4)n2)[C@H](CCO)N([S@@](=O)C(C)(C)C)C3)CC1	12	14
CNC[C@H]1OCCCC[C@@H](C)Oc2ccc(NC(=O)Nc3cccc4ccccc34)cc2C(=O)N([C@@H](C)CO)C[C@@H]1C	17	27
C[C@H](CO)N1C[C@H](C)[C@H](CN(C)C(=O)Nc2ccccc2)Oc2c(NC(=O)c3cnccn3)cccc2C1=O	16	23
COCCNC(=O)C[C@H]1C[C@@H]2c3cc(NC(=O)COC)ccc3O[C@@H]2[C@@H](CO)O1	18	13

Single records (already shown).
COc1ccc(C#Cc2ccc3c(c2)[C@H]2[C@H](CCN2S(=O)(=O)c2ccccc2C)[C@H](CO)N3)cc1 in the list: Vaccinia inh = 13; Vaccinia inh Venus = 11
CO[C@@H]1CN(C)C(=O)c2ccc(NC(=O)C3CCC3)cc2OC[C@H](C)N(CC2CCCCC2)C[C@H]1C in the list: Vaccinia inh = -15; Vaccinia inh Venus = -10
Cc1noc(C)c1NC(=O)Nc1ccc2c(c1)C(=O)N(C)[C@H]1CC[C@@H](CC(=O)N[C@@H]3CCN(Cc4ccccc4)C3)O[C@H]1CO2 in the list: Vaccinia inh = 1; Vaccinia inh Venus = -2

Compound activity as filed in PubChem BioAssay.
